Bioassay records deposited in PubChem by National Center for Advancing Translational Sciences (NCATS).
2A Renilla: lowers the Renilla signal of an FMDV 2A StopGo reporter. Potency, µM (doses to about 57.5 µM), inactives show at the top dose signal change, negative = less light. HEK cells with a luciferase reporter of 2A StopGo recoding. 120,000 compounds, 0.32% hits. AID 1745857; active means well fitted falling curve with a large enough effect; inconclusive means small, poorly fitted or top-dose-only effect; inactive means no such curve, though single readings can be large or run the other way; note: nearly all actives have a fitted effect of over 55% in size; overnight with compound
2A firefly: FMDV 2A StopGo reporter, firefly signal; HEK cells with a luciferase reporter of 2A StopGo recoding; Potency, µM (titrated, usually from 57.5 µM), for inactives: top-dose signal change, negative = less light; 120,000 compounds, 0.23% hits; AID 1745856; active = well fitted falling curve with a large enough effect; inconclusive = small, poorly fitted or top-dose-only effect; inactive = no such curve, though single readings can be large or run the other way; note: nearly all actives have a fitted effect of over 60% in size; overnight with compound
* hit, by the source's call; ? = inconclusive; [ ] = dose if it differs, or a comment. % is set by controls: 0 for no effect and ±100 for the full control effect; potency is the fitted concentration of half-maximal effect.

SMILES	2A Renilla	2A firefly
COc1cccc(NC(=O)NC(CCSC)C(=O)O)c1 (stereo unspecified)	-5%	0%
CC(Oc1ccc2ccc(=O)oc2c1)C(=O)NC1CC(C)(C)NC(C)(C)C1 (stereo unspecified)	-12%	-3%
CNC(=O)C1CCC(Cn2c(=O)c3sccc3n(CC(=O)Nc3ccc(C)c(F)c3)c2=O)CC1 (stereo unspecified)	3%	0%
CN1CCC(C(=O)c2ccccc2)C1=O (stereo unspecified)	9%	7%
N#Cc1cccc(NC(=O)CCc2ncc(-c3ccccc3Cl)o2)c1	-5%	11%
O=C(c1cc(-c2cccc(Cl)c2)on1)N1CCCCC1	51%[activator]	191%[activator]
COC(=O)COc1ccc2oc(C)c(C(=O)OC)c2c1	2%	21%
Cc1ccc(S(=O)(=O)c2nc(-c3ccco3)oc2SCC(=O)c2ccc(Cl)cc2)cc1	166%[activator]	-23%
CCn1cc2nc(SCc3cc(C)ccc3C)n(Cc3ccc(OC)cc3)c(=O)c2n1	-1%	6%
CC(C)NC(=O)CSc1ncc(-c2ccc(Cl)cc2)o1	4%	0%
Cc1ccc(-n2ncc3c(NCCO)ncnc32)cc1Cl	-6%	157%[activator]
CCn1nnnc1SCC(=O)N(Cc1cccs1)c1ccc2c(c1)OCCO2	0%	0%
N#Cc1ccc(-c2ccc(OCC(=O)c3ccc4c(c3)OCCO4)cc2)cc1	-10%[1.06 µM]	-10%
Cc1ccc(CNC(=O)C2CCN(S(=O)(=O)Cc3ccccc3)CC2)cc1	0%	-3%
O=C(O)Cn1cc(C(C(=O)O)N2CCN(Cc3ccccc3)CC2)c2ccc(Cl)cc21 (stereo unspecified)	-4%	1%
CC(NC(=O)Cc1c[nH]c2ccccc12)c1ccco1 (stereo unspecified)	0%	6%
O=C(NC(Cc1c[nH]c2ccccc12)C(=O)O)C1CC1 (stereo unspecified)	-7%	-8%
Cc1cccc(OCCC(=O)NO)c1	40%[activator]	0%
O=C(CSc1nnc(CNC(=O)c2ccccc2)n1-c1cccc(Cl)c1)Nc1ccccc1F	4%	-24%
CCc1ccc(NC(=O)Cn2c(=O)n(CCC(=O)N3CCc4ccccc4C3)c(=O)c3ccccc32)cc1	-11%	-5%
O=C(CN1CCN(C(=O)CCc2ncc(-c3c(F)cccc3F)o2)CC1)Nc1cccc(F)c1	-5%	21%
COc1cccc(-n2c(-c3cccc(F)c3)nc3c(cnn3-c3ccc(C)cc3)c2=O)c1	-12%	-23%
O=C(Cc1ccc(OC(F)F)cc1)Nc1cccc2cccnc12	15%	76%[activator]
COc1cnc(NS(=O)(=O)c2ccc(N)cc2)nc1	47%[activator]	-4%
Cc1ccccc1C(=O)Nc1sc2c(c1C(=O)O)CCC(C(C)(C)C)C2 (stereo unspecified)	-1%	0%
Nc1nc(CN2CCN(C(=O)c3ccccc3F)CC2)nc2ccccc12	34%[activator]	178%[activator]
CCN(Cc1ccccc1)Cc1nc2sc(C(=O)OC)c(C)c2c(=O)[nH]1	1%	11%
CCc1ccccc1NC(=O)CNC(=O)NNC(=O)C(C)Nc1nc2ccccc2s1 (stereo unspecified)	4%	-14%
Cc1ccc(C)c(CN2C(=O)c3ccccc3S(=O)(=O)c3ccc(C(=O)NCCc4ccc(Cl)cc4)cc32)c1	-10%	0%
O=C(Nc1ccc(OC(F)(F)F)cc1)c1cc2ccccn2n1	8.9µM*	20%
O=C(NC1C2CC3CC(C2)CC1C3)c1ccc(Cl)s1 (stereo unspecified)	23%	20%
Nc1nccnc1C(=O)NCc1ccccc1Cn1cccn1	-13%[1.06 µM]	4%
CCCCCc1c(C)nc(Nc2nc(C)c3cc(OC)ccc3n2)[nH]c1=O	-4%	-1%
O=c1[nH]c(=O)c2[nH]c(=O)[nH]c2[nH]1	-10%[11.5 µM]	-9%[11.5 µM]
Nc1cccc(NS(N)(=O)=O)c1	-6%	-1%
COc1cccc(Cn2c(CNC(=O)CCc3ccccc3)nc3cccnc32)c1	-7%	-8%
Cc1cc(Nc2cccc(Cl)c2)nc2ccc(NC(=O)CC3CCCCC3)cc12	29%	11%
CCCCc1nn2c(=O)cc(COC(=O)c3cccc(NC(=O)c4cccs4)c3)nc2s1	-10%	11%
O=C(O)C(c1c[nH]c2ccc(Cl)cc12)N1CCN(c2ccc(F)cc2)CC1 (stereo unspecified)	-11%	-17%
CCC(CC)C(=O)Nc1ccc(OCc2cc(=O)n3ccc(C)cc3n2)cc1	-15%	-19%
Brc1ccccc1-c1ccccc1	-6%[114 µM]	-13%[115 µM]
Cc1ccccc1CC(=O)N1CCN(c2ncnc3nc[nH]c23)CC1	7%	2%
O=C(C1CCCCC1)N1CCC(c2nc3ccccc3o2)CC1	-1%	?
O=C(Nc1cccc(C(F)(F)F)c1)c1cc(=O)c2ccccc2o1	-9%	-4%
Cc1oc(-c2ccccc2F)nc1CN1CCC(C(=O)NCCc2ccc(Cl)cc2)CC1	-16%	-20%
O=c1cc(CN2CCN(c3ccccc3)CC2)c2cc(O)ccc2o1	4%	10%
CN(C)C(=O)CCc1ccc(NC(=O)c2ccccc2)cc1	12%	39%[activator]
COc1ccc(OC)c(NC(=O)Cn2nc3ccc(SC(C)C)nn3c2=O)c1	-2%	3%
Nc1cc(N)nc(SCc2ccc(C(F)(F)F)cc2)n1	-8%	148%[activator]
CCOC(=O)/C(C#N)=C/c1ccc(OCC(=O)N2CCOCC2)cc1	-4%	-2%
The list goes on:
SMILES	2A Renilla	2A firefly
Cc1ccc2oc(C(=O)N(Cc3ccc(Cl)cc3)Cc3ccco3)cc(=O)c2c1	89%[activator]	3%
CCOc1ccc2nc(SCC(=O)N(Cc3ccccc3)C3CCS(=O)(=O)C3)[nH]c2c1 (stereo unspecified)	5%	2%
Cc1ccccc1COc1ccc2c(=O)c(-c3ccccc3)coc2c1	1%	32%[activator]
COc1cc(OC)cc(-c2cc3nc(C)c(CCC(=O)NCCc4cccc(C)c4)c(C)n3n2)c1	-8%	?
Cc1nn(-c2ccccc2)c2c1N(CC(=O)N1CCN(c3cccc(Cl)c3)CC1)C(=O)CS2	-11%	-18%
Cc1onc(-c2ccccc2Cl)c1C(=O)Oc1ccc(Cl)cc1Cl	66%[activator]	-41%
O=C(Cn1c(=O)c2cccn2c2ccccc21)NCCc1ccccc1	-9%	-12%
Cc1cc(C(=O)N2CCN(S(=O)(=O)c3cc(Cl)ccc3Cl)CC2)c(C)n1Cc1ccco1	-14%	-15%
O=C(/C=C/c1cccnc1)c1ccc2c(c1)OCCCO2	0%	0%
Cc1cccc(NC(=O)C2CCN(c3cnccn3)CC2)c1	-12%	-3%

Pulled one by one from the list above (six):
SMILES	2A Renilla	2A firefly
O=C(/C=C/c1cccnc1)c1ccc2c(c1)OCCCO2	0%	0%
COc1cc(OC)cc(-c2cc3nc(C)c(CCC(=O)NCCc4cccc(C)c4)c(C)n3n2)c1	-8%	?
Cc1cccc(NC(=O)C2CCN(c3cnccn3)CC2)c1	-12%	-3%
Cc1nn(-c2ccccc2)c2c1N(CC(=O)N1CCN(c3cccc(Cl)c3)CC1)C(=O)CS2	-11%	-18%
O=C(Cn1c(=O)c2cccn2c2ccccc21)NCCc1ccccc1	-9%	-12%
Cc1cc(C(=O)N2CCN(S(=O)(=O)c3cc(Cl)ccc3Cl)CC2)c(C)n1Cc1ccco1	-14%	-15%

Following part
SMILES	2A Renilla	2A firefly
CN(C(=O)CN1CCN(c2ccc([N+](=O)[O-])c3cnccc23)CC1)c1ccccc1	-19%	3%
COC(=O)c1nnn(CC(=O)NC(=O)Nc2cccc(C)c2C)c1C(=O)OC	-5%	-5%
O=C(CSc1ncc(-c2ccc(Cl)cc2)o1)Nc1ccc(F)cc1	4%	4%
CSc1ccc(CNC(=O)Cn2c(-c3cccs3)cc3cc(F)ccc32)cc1	-6%	-12%
CC(=O)c1cccc(NC(=O)c2oc3c(c2C)-c2nn(Cc4ccc(Cl)cc4)cc2CC3)c1	-15%	2%
Cc1ccccc1CNC(=O)c1ccc2nc(SCc3ccc(F)cc3)n(C)c2c1	56%[activator]	-3%
Cc1cccc(N2C(=O)CCSC23C(=O)N(Cc2ccc(F)cc2)c2ccccc23)c1 (stereo unspecified)	94%[activator]	2%
CCCCc1ccc(-n2nnnc2SCC(=O)Nc2cccc(NC(C)=O)c2)cc1	-1%	14%
Cc1ccccc1CN1C(=O)c2ccccc2S(=O)(=O)c2ccc(C(=O)OCC3CCCO3)cc21 (stereo unspecified)	-10%	-11%
Cn1nc(C(=O)N2CCCN(Cc3ccccc3)CC2)c2ccccc2c1=O	-3%	1%
CC(C)(C)C(=O)N1CCC(NC(=O)c2cc3ccccc3oc2=O)CC1	-9%	1%
COc1ccc(N2C(=O)C(C)CS2(=O)=O)cc1S(=O)(=O)Nc1ccc(N2CCCC2)cc1 (stereo unspecified)	130%[activator]	6%
CCCCc1ccc(-c2ccc(C#N)cc2)nc1	3%	144%[activator]
Cc1ccc(-c2ccc(Oc3ccc(C#N)c(C#N)c3)cc2)cc1	?	?
Cc1ccc(-n2nc3c(=O)n(C(C)C(=O)NCc4ccco4)nc(C)c3c2C)cc1 (stereo unspecified)	?	-15%
CCOC(=O)c1c(C)oc2nc(C)nc(NCCCN3CCN(c4cc(Cl)ccc4C)CC3)c12	-14%	-13%
Cc1nn(CC(=O)Nc2ccccc2C(F)(F)F)c2ccccc12	-5%	-6%
Cc1ccccc1CN(C)C(C)c1nc(-c2cccs2)no1 (stereo unspecified)	6%	54%[activator]
COc1cc(CC2CC(c3ccc(Cl)cc3)=NO2)cc2c1OCO2 (stereo unspecified)	9%	147%[activator]
CCCCCCC(=O)Nc1c(C)cccc1C	5%	-1%
CC(C)(C)c1nc(COc2ccccc2C#N)cs1	2%	0%
Cc1ccc(CCNS(=O)(=O)c2ccc3c(c2)C(C(C)C)C(=O)N3)cc1 (stereo unspecified)	148%[activator]	-19%
CCN(CC)CCCn1c(C)cc2c(c1=O)C(c1ccc(OC)c(OC)c1OC)C(C#N)=C(N)O2 (stereo unspecified)	-7%	-12%
CCCn1c(C)cc(C(=O)Cn2c(Cl)nc3c2c(=O)n(C)c(=O)n3C)c1C	?	?
CCOc1ccc(C(=O)Nc2cccc(NC(=O)c3ccc(Cl)cc3Cl)c2)cc1	5%	11%
CCOc1cc(C(=O)Nc2cccc(Cl)c2N2CCOCC2)cc(OCC)c1OCC	-2%	0%
CCN(Cc1ccc(OC)c(OC)c1)C(=O)CSc1nc(C2CC2)nc2ccccc12	-20%	-9%
COc1ccc(-c2nc(NC(=O)c3ccc(C)cc3)n[nH]2)cc1OC	43%[activator]	100%[activator]
COc1ccc(C(=O)c2c(N)c(C(=O)Nc3ccccc3C(F)(F)F)c3ccccn23)cc1	-7%	5%
Cn1c(=O)n(C)c2cc(CNCCc3ccccc3F)ccc21	16%	17%
CCC(CC)NC(=O)CN1CCN(c2ccc(C(F)(F)F)cn2)CC1	?	?
C=C(C)Cn1c(Br)nc2c1c(=O)[nH]c(=O)n2C	-9%	0%
COc1ccc(F)cc1S(=O)(=O)NCC(c1ccco1)S(=O)(=O)c1ccc(F)cc1 (stereo unspecified)	209%[activator]	-15%
CCNCC(O)COCc1ccc(OC)cc1 (stereo unspecified)	5%	10%
C/C(=N/Nc1c(F)c(F)nc(F)c1F)c1ccc(C)c([N+](=O)[O-])c1	-2%[1.06 µM]	6%
Cc1ccccc1C(=O)N1CCN(c2oc(-c3ccccc3F)nc2C#N)CC1	2%	-6%
CC(=O)c1ccc(NC(=O)Nc2sc3nc4n(c(=O)c3c2C)CCC(C)CC4)cc1 (stereo unspecified)	-8%	38%[activator]
O=C(c1cc(S(=O)(=O)N2CCCCC2)ccc1Cl)N1CCN(c2ccccn2)CC1	18%	6%
COc1ccc(OC)c(CNC(=O)CN2CC(C)Sc3ccccc32)c1 (stereo unspecified)	50%[activator]	-2%
Cc1cccc(C(=O)OCc2nc(N)c3ccccc3n2)c1	24%	33%[activator]

Individual results from the results shown:
Cc1ccccc1C(=O)N1CCN(c2oc(-c3ccccc3F)nc2C#N)CC1 @ 2A Renilla = 2%
O=C(c1cc(S(=O)(=O)N2CCCCC2)ccc1Cl)N1CCN(c2ccccn2)CC1 @ 2A Renilla = 18%

A run of entries from the list above:
SMILES	2A Renilla	2A firefly
COc1cccc(NC(=O)NC(CCSC)C(=O)O)c1 (stereo unspecified)	-5%	0%
CC(Oc1ccc2ccc(=O)oc2c1)C(=O)NC1CC(C)(C)NC(C)(C)C1 (stereo unspecified)	-12%	-3%
CNC(=O)C1CCC(Cn2c(=O)c3sccc3n(CC(=O)Nc3ccc(C)c(F)c3)c2=O)CC1 (stereo unspecified)	3%	0%
CN1CCC(C(=O)c2ccccc2)C1=O (stereo unspecified)	9%	7%
N#Cc1cccc(NC(=O)CCc2ncc(-c3ccccc3Cl)o2)c1	-5%	11%
O=C(c1cc(-c2cccc(Cl)c2)on1)N1CCCCC1	51%[activator]	191%[activator]
COC(=O)COc1ccc2oc(C)c(C(=O)OC)c2c1	2%	21%

Next section.
SMILES	2A Renilla	2A firefly
COCCCNC(=O)c1cnn(-c2ccc(F)cc2F)c1C1CCNCC1	-2%	22%
O=C(O)CCNS(=O)(=O)c1ccc(C(=O)/C=C/c2ccc(C(=O)O)cc2)cc1	5%	11%
CCCCc1ccc(Nc2nc(NCCO)c3nccnc3n2)cc1	-15%	0%
CC(=O)c1c(C)[nH]c(C(=O)C(C)SCc2ccc(Cl)cc2)c1C (stereo unspecified)	?	?

The list is partial (hit frequency here may not be typical).
